VDR inhibitor = Inhibitors of the vitamin D receptor (VDR): qHTS; Vitamin D3 receptor (Homo sapiens), P11473; actives 0.93% (n = 400,000); VDR-SRC2-3 peptide fluorescence polarization, 2 h; Potency, µM, without a hit: max response, negative = inhibition, most hits filed as inhibitors; active = well fitted inhibition curve with a large enough effect; inconclusive = small, poorly fitted or top-dose-only effect, or another doubt; inactive = no such curve, though single readings can be large or run the other way; also: series mostly up to about 120 µM
Target sequence (P11473 whole entry, looked up): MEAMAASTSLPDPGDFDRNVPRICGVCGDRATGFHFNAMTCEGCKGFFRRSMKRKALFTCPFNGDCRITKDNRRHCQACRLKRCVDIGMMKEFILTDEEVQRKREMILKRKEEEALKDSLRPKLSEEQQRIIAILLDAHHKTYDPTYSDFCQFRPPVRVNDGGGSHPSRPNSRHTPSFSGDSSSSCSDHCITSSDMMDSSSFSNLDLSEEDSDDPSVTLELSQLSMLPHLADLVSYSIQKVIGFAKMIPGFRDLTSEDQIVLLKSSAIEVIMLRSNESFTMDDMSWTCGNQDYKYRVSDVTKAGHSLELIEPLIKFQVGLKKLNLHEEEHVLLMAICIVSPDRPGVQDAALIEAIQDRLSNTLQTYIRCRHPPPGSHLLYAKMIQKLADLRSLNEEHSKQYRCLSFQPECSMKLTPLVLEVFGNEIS
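Compounds are added to VDR with labelled SRC2-3 coactivator peptide and held 2 h at room temperature. Inhibition of the VDR–peptide interaction is then read as a change in fluorescence polarization.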
Starred values were filed as active, the others as inactive; ? = inconclusive; [ ] = dose if it differs, or a comment. % is scaled to controls: 0 for no effect and ±100 for the full control effect; potency is read from the fitted curve at half-maximal effect. Some of the compounds tested; rates above refer to the full screens.

SMILES	VDR inhibitor
Cc1ccc(N2CC(c3nc4ccccc4n3CCC3CCCCC3)CC2=O)cc1 (configuration not stated)	9.1%
COc1ccc(C(=O)C2CCCN(Cc3cnc(N4CCCC4)s3)C2)cc1OC (configuration not stated)	2.7%
O=C(Cn1cc(SCc2c(F)cccc2Cl)c2ccccc21)N1CCCC1	-10.0%
Cc1cc(C)n2nc(SCC(=O)NC3CCCC(C)C3C)nc2n1 (configuration not stated)	-5.6%
CC(=O)C1=C(O)C(=O)N(c2ccc(S(N)(=O)=O)cc2)C1c1ccccc1F (configuration not stated)	18.9%
CCOc1ccc(S(=O)(=O)N2CCN(S(=O)(=O)c3ccc(C)c(C)c3)CC2)cc1	17.2%
O=C(COC(=O)c1ccccc1Nc1ccccc1F)c1ccccc1	18.9%
CCCCN1C(C(=O)c2ccccc2)=C(OC(C)=O)c2ccccc2S1(=O)=O	?
CCOc1ccc(NC(=O)COc2ccc(C(=O)NC3CCCc4ccccc43)cc2OC)cc1 (configuration not stated)	3.0%
Cc1noc(C)c1C(=O)Nc1nc2ccc(Cl)cc2s1	-9.0%
CCCCOC(=O)c1ccc(NC(=O)/C=C/c2cccs2)cc1	-9.6%
CCc1ccc(NS(=O)(=O)c2ccc(-c3cc(C)no3)cc2)cc1	-4.6%
Cc1cc(Cl)ccc1NC(=O)Cc1ccc(NC(=O)N2CCCCc3ccccc32)cc1	2.2%
Cc1cc(N2CCN(C)CC2)nc2ccc(NC(=O)CCC(=O)N3CCN(c4ccc([N+](=O)[O-])cc4)CC3)cc12	-7.3%
CC1(C)Cc2cccc(OCC(=O)N3CCN(c4ccc(F)cc4)CC3)c2O1	-14.9%
Cc1cc(C(=O)NN=C(CCC(=O)O)c2cccs2)c(C)o1	-21.1%
O=C(C[n+]1ccccc1)Nc1ccc(Oc2ccccc2)cc1	8.9%
Cc1oc(-c2ccccc2)nc1CS(=O)CC(=O)NC1CCCCCC1 (configuration not stated)	-6.2%
O=C(NC(=S)NC1CCCC1)c1ccccc1Br	-3.5%
Cc1cccc(NC(=O)c2ccc(S(=O)(=O)N3CC(C)OC(C)C3)cc2)n1 (configuration not stated)	8.0%
CCCCOc1ccc(C(=O)N2CCCC2)cc1	6.1%
O=[N+]([O-])c1ccc(/C=N/n2c(-c3cccnc3)n[nH]c2=S)cc1	-1.8%
COCCn1c(=O)c(C)nc2cnc(N(C)C)nc21	4.3%
O=C(CN1CCOCC1)Nc1ccccc1Cl	9.1%
C=CCn1c(COc2ccc(F)cc2)nnc1SCC(=O)NC1CCCC1	-9.2%
CCCN(CCC)c1nc(Cl)nc(NCCN2CCOCC2)n1	3.8%
CN(C)C(=O)c1c2c(nc3ccccc13)-c1ccccc1CC2	8.1%
CN(C)S(=O)(=O)c1cccc(NC(=O)COc2ccccc2C(=O)NCc2ccccc2)c1	-11.7%
CCc1n[nH]c(=S)n1/N=C/c1ccc(NC(C)=O)cc1	-10.0%
Nc1scc(-c2ccncc2)c1Cl	-5.8%
CC(C)(C)OC(=O)N1CCC(C(=O)N2CCCCCC2)CC1	-7.7%
Cn1ncc(Br)c1NC(=O)Nc1ccc(OC(F)(F)F)cc1	0.0%
Cc1cccc(N2CCN(C(=O)NC3CCCCC3)CC2C)c1 (configuration not stated)	4.1%
O=C(Nc1ccc(N2CCCCC2)c(C(=O)O)c1)c1ccco1	-7.4%
CC1CCN(S(=O)(=O)N2CCC(C(=O)NC3CCCC3)CC2)CC1	0.4%
Cc1ccccc1CN(C)CCc1ccccn1	4.0%
Cc1ccc(S(=O)(=O)NC(=O)Nc2ccc(OC(F)F)cc2)cc1	-4.9%
O=C(c1cc(=O)[nH]c2ccccc12)N1CCN(Cc2ccc3c(c2)OCO3)CC1	-4.4%
COc1ccc(-n2cnc3cc(NS(=O)(=O)c4ccccc4)ccc32)cc1	6.4%
COc1ccc(C2CC(c3cccc(C)c3)n3ncnc3N2)cc1 (configuration not stated)	-11.4%

Continued; it opens with the 7 that closed the last part.
SMILES	VDR inhibitor
O=C(Nc1ccc(N2CCCCC2)c(C(=O)O)c1)c1ccco1	-7.4%
CC1CCN(S(=O)(=O)N2CCC(C(=O)NC3CCCC3)CC2)CC1	0.4%
Cc1ccccc1CN(C)CCc1ccccn1	4.0%
Cc1ccc(S(=O)(=O)NC(=O)Nc2ccc(OC(F)F)cc2)cc1	-4.9%
O=C(c1cc(=O)[nH]c2ccccc12)N1CCN(Cc2ccc3c(c2)OCO3)CC1	-4.4%
COc1ccc(-n2cnc3cc(NS(=O)(=O)c4ccccc4)ccc32)cc1	6.4%
COc1ccc(C2CC(c3cccc(C)c3)n3ncnc3N2)cc1 (configuration not stated)	-11.4%
Cc1nc2cnc(N3CCOCC3)nc2n(C)c1=O	-16.0%
O=C(NCc1ccc2c(c1)CCN2C(=O)c1ccc(F)cc1)c1cc2ccccc2[nH]1	12.3%
NCC(c1ccc(Cl)cc1Cl)c1c[nH]c2ccccc12 (configuration not stated)	-13.2%
Cc1nnc(SCC(=O)Nc2nccs2)s1	-2.0%
COC(=O)CNc1cccc(C(F)(F)F)c1	-13.9%
CCN=C1SC(C(N)=O)CC(=O)N1CC (configuration not stated)	0.8%
Cc1cc(C)cc(-n2nnnc2SCC(=O)Nc2nc(-c3ccc(F)cc3)cs2)c1	12.8%
COc1ccc(CCN(C)C2CCCN(S(=O)(=O)c3ccccc3F)C2)cc1OC (configuration not stated)	-7.1%
CCOc1ccc(C(C(=O)NCC2CCCO2)N(Cc2cccnc2)C(=O)c2snc(C(N)=O)c2N)cc1 (configuration not stated)	-5.5%
Cc1ccccc1-n1nc(C(=O)O)c(C)c(C#N)c1=O	3.4%
CCOc1cc(N2CCOCC2)c(OCC)cc1NC(=O)C(NC(=O)c1ccco1)C(C)C (configuration not stated)	-3.9%
Cc1ccc(NC(=O)CSc2nc3ccccc3c3nc(CCn4c(C)nc5ccccc54)nn23)cc1F	1.4%
CN(CCc1cnn(C)c1)C(=O)C1CCC(=O)N(CC2CCCCC2)C1 (configuration not stated)	-12.5%
CN(c1ccccc1)S(=O)(=O)c1ccc(C(=O)OCC(=O)NCc2ccco2)cc1	5.8%
Cc1ccc2nc(C3CCN(CC(=O)N4CCCCCC4)CC3)[nH]c2c1	-6.8%
Cc1cccc(Cn2c(-c3ccc[nH]c3=O)nc3ccccc32)c1	-21.4%
Cc1ccc2c(Cl)c(C)c(N3CCCC3)nc2n1	-16.8%
Cc1cccc(C(=O)Nc2nccs2)c1[N+](=O)[O-]	-7.2%
CCCn1nc(C(=O)OCC(=O)c2ccc3c(c2)NC(=O)CO3)c2ccccc2c1=O	2.2%
OC1(c2ccccc2F)CCN(Cc2nnc(-c3ccccc3)o2)CC1	-1.6%
N#CCC(=O)Nn1c(=S)[nH]c2ccccc2c1=O	11.1%
CCOc1cc(/C=C2/C(=N)N3C(=NC2=O)SN=C3S(=O)(=O)CC)ccc1OC(=O)c1ccco1	89.1µM*
Cc1ccc(C)c(NC(=O)c2cc(S(=O)(=O)N3CCCCC3)c[nH]2)c1	-0.4%
CCc1ccc(C(=O)Nc2cc(S(=O)(=O)N3CCOCC3)ccc2N2CCOCC2)cc1	70.9%[activator]
COc1cc2c(C)nc(C)c(C#N)c2cc1OC	2.3%
CCCCc1ccc(NC(=O)Nc2cc(C)nn2C)cc1	0.8%
Cc1nc(-c2cccc(C(F)(F)F)c2)sc1C(=O)O	-5.0%
CC(Sc1nnnn1-c1ccccc1)C(=O)Nc1ccc(N2CCN(C)CC2)cc1 (configuration not stated)	-15.9%
Cn1c(N)c(C(=O)CSc2nc3ccccc3c(=O)n2CCCN2CCOCC2)c(=O)n(C)c1=O	-14.4%
COc1ccc(Cl)cc1S(=O)(=O)N1CCCC(C(=O)NCc2ccccn2)C1 (configuration not stated)	6.0%

Shown bar-delimited: entries from further up
smiles | VDR inhibitor
COc1cc2c(C)nc(C)c(C#N)c2cc1OC | 2.3%
CCCCc1ccc(NC(=O)Nc2cc(C)nn2C)cc1 | 0.8%
Cc1nc(-c2cccc(C(F)(F)F)c2)sc1C(=O)O | -5.0%
CC(Sc1nnnn1-c1ccccc1)C(=O)Nc1ccc(N2CCN(C)CC2)cc1 (configuration not stated) | -15.9%

New compounds follow.
SMILES	VDR inhibitor
CCCC(=O)N(Cc1cc(=O)[nH]c2ccccc12)c1ccc(C)cc1	?
OC[C@@H]1O[C@H](n2cnc3c(SCc4ccccc4)ncnc32)[C@H](O)[C@H]1O	-14.3%
COc1ccc(C(=O)OCC(=O)Nc2cc(S(=O)(=O)N3CCOCC3)ccc2N2CCCC2)cc1	10.1%
CN1CCN(C(=O)c2cccc(-c3cc(O)c4ncccc4c3)c2)CC1	3.5%
CCCC1OC(c2cc3c(cc2Cl)OCO3)OCC1CC (configuration not stated)	8.0%
CCOC(=O)/C(C#N)=C/c1c(N2CCN(Cc3ccc4c(c3)OCO4)CC2)nc2c(C)cccn2c1=O	3.8%
CN1C(=O)C(C)(C)c2cc(S(=O)(=O)NCc3ccc(C(=O)Nc4ccc(Cl)cc4)cc3)ccc21	-2.2%
COc1ccc(NC(=O)CSc2nnc3ccc(-c4cccnc4)nn23)c(OC)c1	-22.5%
COc1ncc(-c2ccc3c(c2)S(=O)(=O)c2cccc(C(=O)O)c2C3=O)cn1	-17.7%
COc1ccccc1C(=O)NC(=S)/C=C1/N(C)c2ccccc2C1(C)C	?
CC(=O)Nc1ccc(S(=O)(=O)Nc2ccc(N3CCOCC3)cc2)cc1	8.2%
COc1ccc(N(C(=O)c2ccc(Br)o2)C2C=CS(=O)(=O)C2)cc1 (configuration not stated)	14.1%
COc1ccc(CCNC(=O)c2cc(S(=O)(=O)N(C)c3ccccc3)ccc2Cl)cc1	?
CCN(CC(=O)NCc1ccc(Cl)cc1)C(=O)c1oc2ccccc2c1C	4.2%
O=C1SC(SCc2ccccc2)=N/C1=C\c1ccco1	-17.2%
Cc1ccc(NCc2ccccc2O)c(C)c1	19.1%
CCOC(=O)CCN(c1ccccc1)S(=O)(=O)c1ccc(-c2ccc(=O)[nH]n2)s1	0.6%
CCCN(C1CCS(=O)(=O)C1)S(=O)(=O)c1cc(OC)ccc1OC (configuration not stated)	4.8%
O=C(NCC(c1cccs1)N1CCOCC1)C1CCN(S(=O)(=O)c2cccc(C(F)(F)F)c2)CC1 (configuration not stated)	-13.7%
CCN(CC)c1ccc(NC(=O)CSc2nc3ccccc3c(=O)[nH]2)cc1	-9.8%
N#CC1=C(SCC(=O)Nc2nccs2)NC(=O)CC1c1ccccc1 (configuration not stated)	-5.4%
OCCC1CN(Cc2ccccc2-c2ccco2)CCN1Cc1ccccc1 (configuration not stated)	0.9%
COc1ccc(NC(=O)Cn2cnc3ccc(S(=O)(=O)N4CCC(C)CC4)cc3c2=O)c(OC)c1	3.7%
CC(C)C(=O)Nc1cccc(S(=O)(=O)c2cccc(NC(=O)C(C)C)c2)c1	12.2%
O=C1C(Cl)=C(Nc2ccccc2)C(=O)c2ccccc21	3.4%
COCCNC(=O)CN(C(=O)CCC(=O)Nc1ccccn1)c1ccccc1OC	3.1%
COc1ccccc1CNC(=O)COC(=O)c1ccco1	-0.3%
COc1ccc(C2=NC(C)(C)N(CC(=O)Nc3cc(OC)cc(OC)c3)C2=O)cc1	11.6%
Cc1cccc(OCC(=O)Nc2ccccc2N2CCCCC2)c1	7.2%
Cc1ccc(N(C)S(=O)(=O)c2ccc3[nH]c(=O)ccc3c2)cc1	4.5%

Reformatted with each value named: entries from further up
SMILES: COc1ccc(C2=NC(C)(C)N(CC(=O)Nc3cc(OC)cc(OC)c3)C2=O)cc1
- VDR inhibitor: 11.6%
SMILES: Cc1cccc(OCC(=O)Nc2ccccc2N2CCCCC2)c1
- VDR inhibitor: 7.2%
SMILES: Cc1ccc(N(C)S(=O)(=O)c2ccc3[nH]c(=O)ccc3c2)cc1
- VDR inhibitor: 4.5%

Next compounds.
SMILES	VDR inhibitor
COc1ccccc1NS(=O)(=O)c1cccc(C(=O)N/N=C/c2ccccc2OCC(=O)O)c1	-1.5%
Cc1cccc(NC(=S)N(CCc2nc3cc(C)c(C)cc3[nH]2)Cc2cccnc2)c1	-8.8%
COC(=O)CSc1nc(N2CCCCC2)c2c(c1C#N)CCCC2	-11.2%
COc1cccc(NC2=NC3(CCCCC3)N=C(N)N2)c1	7.6%
Cn1c(OCc2ccc3c(c2)OCO3)nc2c1c(=O)n(Cc1ccc(Cl)c(Cl)c1)c(=O)n2C	8.9%
COc1cccc(CN2CCNC(=O)C2CC(=O)N(C)CC2CCOCC2)c1 (configuration not stated)	-0.5%
CC1=NOC(=O)/C1=C\c1ccc(-c2ccccc2Br)o1	12.6µM*
Cc1nn(C)c(C)c1C1C(C#N)=C(N)OC2=C1C(=O)CCC2 (configuration not stated)	2.5%
COc1ccc(NC(=O)c2ccc(NC3=NC4CS(=O)(=O)CC4S3)cc2)cc1 (configuration not stated)	-5.7%
O=C(NCCc1ccc(Cl)cc1)C(=O)Nc1cc2c3c(c1)CC(=O)N3CCC2	-4.6%
CC(=O)C1=C(c2ccc(Cl)c(Cl)c2)N(C(C)=O)n2cnnc2S1	?
COc1ccc(CCNC(=O)c2cc(=O)[nH]c3ccc(Br)cc23)cc1OC	-9.5%
COc1ccc(NC(=O)Nc2ccon2)c(OC)c1	-15.1%
O=C(c1ccc(C(=O)N2CCN(c3ccccc3F)CC2)nc1)N1CCN(c2ccccc2F)CC1	21.2%
O=C(NCCSc1c[nH]c2ccccc12)c1ccccc1Cl	-18.7%
COc1ccc(N2C(=O)N3[C@H](c4ccc(Br)cc4)[C@@H]4C(=O)N(C(C)(C)C)C(=O)[C@@H]4[C@]3(Cc3ccccc3)C2=O)cc1	-18.2%
Cc1ccc(S(=O)(=O)N2CCN(C(=O)c3ccc4nc[nH]c4c3)CC2)cc1	-0.9%
CCOC(=O)Nc1ccc2c(c1)N(C(=O)CCN1CCN(CCO)CC1)c1ccccc1S2	-3.2%
COc1ccccc1N1CCN(C(=O)CCn2c(=O)[nH]c3ccccc3c2=O)CC1	16.3%
CCOC(=O)C1=C(C)Nc2ncnn2C1c1cc(Br)ccc1F (configuration not stated)	-0.3%
